From PubChem
BJeLR lethal: BJeLR cell viability loss | BJeLR (HRASV12) viability, CellTiter-Glo ATP luminescence, 48 h; reference of the scale not given here | 300,000 tested, 0.17% active | AID 1554 | inhibition, % (no concentration beside the values);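 active = replicate mean above 50%; inconclusive = above 50% but judged a plate artefact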;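 also: 50 nL library stock added to about 25 µL; numbers are from one replicate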
Bead autofluor: flagged as autofluorescent in microsphere protease counterscreen | 360,000 tested, 3.1% active | fluorescence intensity (concentration not given with the values) | compound autofluorescence counterscreen, microsphere flow cytometry; stronger effect = higher value | AID 624483;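 active = at least 3 SD above the mean of all compounds, about 16000 in these data; inconclusive = too few beads counted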;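 also: 100 nL of 1 mM stock went into each well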
ugtP null kill: kills S. aureus RN4220 lacking UgtP; S. aureus RN4220 ugtP deletion, OD600 growth, 16 h; some inactives read as strong as hits; 330,000 tested, 0.54% active; growth inhibition, % (test concentration not listed);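 active = z-score under -3 and OD600 up to 0.15 on both plates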;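 also: plate controls were untreated wells for no effect and antibiotic for full effect; wells of about 80 µL received 100 nL stock; the first replicate is given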
Mtb hypoxia inh: reduces hypoxia-regulated biosensor signal in M. tuberculosis | 300,000 tested, 0.1% active | fluorescence inhibition, % (concentration not given with the values) | AID 1159583 | M. tuberculosis hypoxia-regulated fluorescent reporter, fluorescence;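 active = 35 to 45% if threefold the growth effect, above 45% if 1.5-fold the growth effect; inactive = the rest, general growth blockers included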;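 also: wells of about 50 µL received 100 nL stock; 0% = vehicle wells and 100% = reference inhibitor wells; whole bacteria with a GFP reporter of the hypoxia response; strong numbers were not always called active; many hits fall short of the cut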
Sa RN4220 lethal: S. aureus RN4220 growth inhibition. OD600, 16 h. inhibition, % (concentration not given with the values). 330,000 tested, 0.33% active. AID 1259311;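 active = z-score of -3 or lower and OD600 up to 0.18 on both plates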;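 also: plate controls were untreated cells for no effect and reference antibiotic for full effect; stock transfer was 100 nL into about 80 µL; one replicate is shown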
PrP UTR inh: inhibition of PrP 5' UTR reporter expression. cell-based PrP 5' UTR mRNA reporter, plate reader. inhibition, % (concentration not given with the values). 340,000 tested, 0.35% active;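 active = every replicate at 50% or more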;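 also: 0 = median of the neutral control wells; tested in H4 reporter cells; numbers are from one replicate; inactives centre near -14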
Mtb hypoxia inh growth: second read-out of Mtb hypoxia inh, no call of its own (marks repeat the call); growth inhibition, %; measured here: M. tuberculosis growth (absorbance);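 0% = vehicle and 100% = reference antibiotic; read after six days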
An asterisk follows results filed as active; ? = inconclusive; · = not tested or not shown; & = joins results of further samples. Compounds were not picked by outcome; any-hit rate near 4%.

Results follow in this order: Bead autofluor	Sa RN4220 lethal	Mtb hypoxia inh	BJeLR lethal	PrP UTR inh	Mtb hypoxia inh growth	ugtP null kill
CC1CCC(C(C)C)C(OC(=O)CSc2n[nH]c(=O)[nH]c2=O)C1 (stereo not drawn)
  7940	6.8	7.3	7.0	-24.2	6.4	8.3
COc1cc2nc(CN3CCOCC3)n(CC(=O)N3CCCCCC3)c(=O)c2cc1OC
  3260	1.0	-1.9	4.6	-17.8	-6.8	-2.6
COc1cc(C(c2sc3nc(C)nn3c2O)N2CC(C)CC(C)C2)cc(OC)c1OC (stereo not drawn)
  5709	-13.8	1.8	12.5	-18.2	0.0	2.4
Cc1oc2cc(O)ccc2c(=O)c1Oc1ccc2ccccc2c1
  9062	9.4	3.1	-8.3	-30.0	8.8	-9.3
COc1c(O)cc(O)c2c(=O)cc(-c3ccccc3)oc12
  5553	4.8	·	·	-42.8	·	6.8
CC1=C(C(=O)NCc2ccccc2)C(c2ccccc2OCC(N)=O)NC(=O)N1 (stereo not drawn)
  10262	1.2	10.1	6.0	-18.6	3.8	3.1
Cc1cc(OCC(=O)NCCCn2ccnc2)c2c(C)cc(=O)oc2c1
  6238	2.1	14.1	3.5	-30.9	-1.8	3.2
Cn1c(SC2C(=O)CC(C)(C)CC2=O)nnc1-c1ccco1
  10425	1.3	8.1	-1.1	-28.3	4.6	5.0
CC(=NCc1ccco1)c1c(C(F)(F)F)[nH]n(-c2nc3ccccc3s2)c1=O
  8905	6.2	19.9	4.0	0.1	18.5	-9.5
O=C(c1cccc(S(=O)(=O)N2CCOCC2)c1)N(CCO)Cc1ccccc1
  3625	2.2	·	11.4	1.8	·	4.7
CCn1c(SCC(=O)Nc2ncc(C(F)(F)F)cc2Cl)nnc1-c1ccccc1
  2241	19.6	0.9	0.1	-16.8	8.1	7.4
COc1ccccc1Nc1ncnc2ccccc12
  3215	6.6	10.5	7.1	-12.5	8.8	-0.7
COC(=O)CCCNc1ncccc1[N+](=O)[O-]
  4397	-1.2	3.3	-0.8	-24.6	-3.4	-0.3
CCN(C(=O)CN1CCN(c2cccc(C(F)(F)F)c2)CC1)c1c(N)n(Cc2ccccc2)c(=O)[nH]c1=O
  4639	2.2	7.7	9.4	-15.9	3.7	6.0
CCc1nn(CC(=O)NCCCN(CC)CC)c(=O)c2cc3sc(C)cc3n12
  5497	2.0	9.3	5.6	-16.2	-5.0	0.6
Cc1ccc2c(c1)c(C)c(C)n2CC(O)CN1CCCCC1C (stereo not drawn)
  5862	-1.1	·	4.0	-18.6	·	5.1
Cc1ccc(C(NC(=O)/C=C\c2ccc3c(c2)OCO3)C(=O)Nc2ccc3c(c2)OCO3)cc1 (stereo not drawn)
  11358	·	·	3.3	-0.8	·	·
O=C(N/N=C/c1cccc(OCC(=O)N2CCCC2)c1)C(=O)Nc1ccccc1F
  9696	·	·	-11.5	-5.2	·	·
COc1cccc(C(C(=O)NC2CCCC2)N(C(=O)c2ccco2)c2ccc(-n3cnnn3)c(C)c2)c1OC (stereo not drawn)
  4420	3.3	-7.7	23.2	1.4	11.9	7.2
COc1cccc(CN(CC(=O)NC2CCCC2)C(=O)Cn2nnc(-c3cccs3)n2)c1
  3470	-0.9	6.1	-4.8	1.9	5.3	1.8

Just Sa RN4220 lethal, for some of the entries so far:
smiles,Sa RN4220 lethal
CC(=NCc1ccco1)c1c(C(F)(F)F)[nH]n(-c2nc3ccccc3s2)c1=O,6.2
CCN(C(=O)CN1CCN(c2cccc(C(F)(F)F)c2)CC1)c1c(N)n(Cc2ccccc2)c(=O)[nH]c1=O,2.2
Cc1ccc2c(c1)c(C)c(C)n2CC(O)CN1CCCCC1C (stereo not drawn),-1.1

Later entries.
Results follow in this order: Bead autofluor	Sa RN4220 lethal	Mtb hypoxia inh	BJeLR lethal	PrP UTR inh	Mtb hypoxia inh growth	ugtP null kill
COc1ccc(NC(=O)Cn2ncc(Cl)c(Cl)c2=O)cc1S(=O)(=O)N1CCOCC1
  2000	5.4	8.6	6.7	-16.9	9.2	-4.6
Cc1ccccc1NS(=O)(=O)c1ccc(C(=O)OCC(=O)NCC(C)C)cc1
  4411	6.3	11.6	-4.0	-30.3	3.1	-1.9
Fc1cccc(Cn2cc(C(=S)N3CCOCC3)c3ccccc32)c1
  2049	0.2	-0.8	3.4	-6.4	6.5	0.3
COc1cccc(C(=O)NCC(=O)NN=C(C)Cc2ccccc2)c1
  ·	4.1	1.7	·	·	-1.3	6.2
COc1ccc(S(=O)(=O)NCCSCc2ccco2)cc1
  2435	5.5	1.2	8.6	-6.0	1.8	-1.8
CCCCCCSc1ccc(-c2nc3ccc(C)cn3c2NC2CCCCC2)cc1
  3829	0.9	13.8	-10.6	1.1	8.1	-3.5
COC(=O)c1cc(OC)c(OC)cc1NC(=O)c1ccc(C)o1
  10840	7.2	1.3	-9.9	-5.8	5.5	-17.3
Cc1ccc(NC(=O)Nc2nnc(Cc3ccc([N+](=O)[O-])cc3)s2)cc1C
  2640	2.7	8.6	-6.9	-8.4	1.8	-0.3
CCN1CCCc2cc(CN(CCN3CCOCC3)C(=S)Nc3ccc(C)cc3)ccc21
  4935	4.3	-1.7	4.3	-20.7	1.6	5.2
C=CCn1c(SCC(=O)Nc2ccc(N(C)C)cc2)nnc1-c1cccc(C)c1
  3566	-1.1	·	-6.4	-18.2	·	3.9
COCC(=O)Nc1nnc(COc2ccc(Cl)cc2)s1
  2491	-11.2	12.5	-0.1	-29.2	9.9	8.7
C1=CCC(/C=N/n2cnnc2)CC1 (stereo not drawn)
  2552	·	·	3.2	-3.6	·	·
COCCNC(=S)N/N=C(\C)c1ccc(Cl)c(Cl)c1Cl
  4113	·	·	-7.6	-31.2	·	·
COc1ccc(C(=O)Nc2cc(C)c(NC(=O)c3ccccc3OC)cn2)cc1
  3827	2.0	-5.6	-0.9	-9.9	9.1	4.8
COCc1nc2ccccc2n1CCCOc1ccccc1
  4570	1.9	·	5.3	-15.2	·	-1.0
CN(C)S(=O)(=O)N1CCC(Oc2ccc(C(=O)NC3CCOC(C)(C)C3)cc2)CC1 (stereo not drawn)
  5546	-0.2	1.5	-11.8	-7.2	-4.1	-0.9
Cc1ccc(S(=O)(=O)Nc2cc3c(C(=O)O)c(C)oc3c3ccccc23)c(C)c1
  5861	6.3	-5.7	7.9	-11.6	-5.6	-8.1
Cc1ccc(NC(=O)C(C#N)=NNc2ccc(C(=O)O)cc2)c(C)c1
  ·	6.8	6.1	·	·	7.1	15.0
CCC(C(=O)OCC(=O)Nc1ccc(C)c(S(=O)(=O)N2CCOCC2)c1)c1ccccc1 (stereo not drawn)
  ·	-2.1	2.2	6.0	-20.3	-8.4	3.7
CC1(C)CC(=O)C=C(c2ccc3ccccc3c2)C1
  2855	13.2	5.3	·	-5.6	1.4	0.5
CC1C=C(C(=O)O)OC(OCc2ccc(CO)cc2)C1 (stereo not drawn)
  ·	6.4&-0.2	2.4&6.7	·	·	2.2&-2.0	-2.5&-0.4
COc1cc(NS(=O)(=O)c2ccc(N/C=C(\C=O)c3nc4cc(Cl)ccc4o3)cc2)nc(OC)n1
  3166	20.5	-1.2	-1.8	-5.2	21.6	7.2
COc1cc2c(cc1OC)CN(C(=O)c1ccc(N3CCCC3)c([N+](=O)[O-])c1)CC2
  ?	2.3	1.8	-2.2	-7.0	8.3	6.9
N#C/C(=C\c1c(N2CCCCCC2)nc2ccccn2c1=O)C(=O)NCc1ccco1
  5921	7.4	10.8	0.9	-19.5	-2.0	-0.4
O=C(NC1CCCC1)C(c1ccccc1)N(Cc1ccco1)C(=O)Cc1cccs1 (stereo not drawn)
  4103	-3.3	15.6	7.9	-11.7	4.7	-2.5
COc1ccc2c(c1)cc(C(=O)N[C@@H](CCSC)C(=O)N1CCC(C(=O)O)CC1)n2C
  3896	4.5	10.6	5.8	-48.0	5.1	5.8
CCCc1nc2sc3c(c2c(=O)n1NC(=O)CCCl)CCCC3
  ·	25.6	-5.2	4.3	-15.2	8.9	3.6
CCOc1ccc(N2C(=O)CC(SCCN)C2=O)cc1 (stereo not drawn)
  8031	5.7	11.3	6.1	-43.9	11.8	-3.3
COc1ccc(CCC(=O)Nc2cc(S(=O)(=O)N3CCOCC3)ccc2OC(C)C)cc1
  8748	6.8	7.2	·	-42.2	-2.2	13.7
Cc1nn(C)c(Cl)c1C=NOC(=O)c1ccc(F)cc1
  ·	4.0	16.7	·	·	0.0	12.5
O=C(NC1CCCCC1)N1CCN(Cc2nc3ccccc3c(=O)[nH]2)CC1
  2456	4.1	-0.4	-8.5	-23.2	13.1	2.7
O=C(CCNC(=O)c1ccccc1Cl)OCC(=O)c1ccccc1
  3359	4.5	10.2	5.9	-22.6	-0.2	-5.3
COc1cc(NC(=O)c2cccs2)c(OC)cc1NC(=O)c1cccs1
  5204	4.2	5.3	6.7	-4.1	-1.5	2.0
CCn1c(=O)c(-c2ccccc2)c(O)c2ccccc21
  9485	-0.6	-6.5	10.3	-8.8	0.3	-6.4
Cc1ccc(OCC(O)Cn2c(N3CCCCC3)nc3c2c(=O)[nH]c(=O)n3C)cc1C (stereo not drawn)
  3418	9.5	5.1	-8.8	-17.7	5.0	-4.3
CCOC(=O)c1cnn(-c2nc(-c3cccc(F)c3)cs2)c1C(F)(F)F
  19380*	-6.7	9.2	-1.1	-19.3	12.3	38.9
COC(=O)c1ccccc1S(=O)(=O)Oc1ccc(-c2ccc(C(=O)O)cc2)cc1
  3745	7.2	9.2	0.2	3.7	10.5	1.2
Cc1ccccc1N(CC(=O)NCC1CCCO1)C(=O)CNS(=O)(=O)c1ccc(F)cc1 (stereo not drawn)
  3309	4.9	11.4	-3.8	-2.4	2.9	6.2
COC(=O)c1ccc(-c2cc3onc(-c4ccccc4)c3c(=O)n2C)cc1
  3938	4.2	8.7	·	-42.9	5.4	-11.1
COc1ccccc1C(CCN(Cc1ccccc1)C(C)=O)c1ccco1 (stereo not drawn)
  5302	-4.2	-7.7	1.0	-20.2	-0.8	5.8
c1ccc(Oc2cccc(OCCCCSc3ncccn3)c2)cc1
  4532	6.3	·	2.5	-6.9	·	44.8
COc1ccc(/C(O)=C2/C(=O)C(=O)N(CCN3CCOCC3)C2c2cccnc2)cc1OC (stereo not drawn)
  9546	1.6	5.4	-1.6	-25.4	-0.4	1.9
CNC(=O)c1ccccc1-c1ccccc1
  3813	1.6	20.0	0.0	-9.5	6.7	2.2
Cc1nnsc1C(=O)NN=Cc1ccc(OC(F)(F)F)cc1
  ·	1.1	10.5	·	·	6.3	-0.9
c1ccc(-n2c(-c3ccncc3)nnc2-c2ccco2)cc1
  16681*	2.1	3.2	3.9	-18.6	0.1	3.2
O=C(O/N=C1\C(=O)N(c2ccccc2)c2ccccc21)C1CC1
  3448	·	·	7.2	-9.7	·	·
